Screens: PubChem, National Center for Advancing Translational Sciences (NCATS)
Rango dissoc inh: inhibitors of RanGTP-induced Rango-importin beta complex dissociation; Potency, µM (doses to about 46.1 µM), for inactives: top-dose activity change, negative = inhibition; Biochemical FRET Rango-importin beta, RanGTP-induced dissociation; O95149+P62826; AID 540253; hit rate 0.071% among 340,000; active means falling FRET ratio curve, often poorly fitted, with flat reads before Ran was added; inconclusive means other falling curves, or compound fluorescence or quenching; inactive means flat or rising ratio curve;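 further: potency means the concentration at half of the fitted maximal effect; % of control where 0% means no effect; nearly all actives have a fitted effect of over 45% in size; -100% = wells without RanGTP and RCC1; the record marks most hits as doubtful in a second field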
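Rango (0.1 uM)–importin beta (0.25 uM) complex; RanGTP-RCC1 trigger; 45 min RT; CFP/YFP FRET read.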
miR-21 reporter: miR-21 reporter, rising signal | Potency, µM (titrated, usually from 38.3 µM), without a hit: top-dose reporter change, positive = more light | 340,000 tested, under 10 active | HeLa miR-21 FLuc reporter, luciferase, 48 h; active = well fitted rising curve with a large enough effect; inconclusive = small, poorly fitted or top-dose-only effect; inactive = no such curve, though single readings can be large or run the other way;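 further: % of control where 0% means no effect; miR-21 action dims this reporter so a rising signal means less miR-21 action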
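HeLa cells endogenously expressing miR-21, stably carrying CMV-driven firefly luciferase with a downstream miR-21 binding site, 2000 cells/well. Titrations up to approximately 40 uM, 48 hours; luciferase luminescence read.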
GLA inh pH 4.5: blocks human alpha-galactosidase A at pH 4.5. P06280. purified enzyme, 4-MU-alpha-Gal fluorescence, pH 4.5. activity change, negative = inhibition, % at 105 µM. 230,000 tested, under 10 active. AID 1467; inconclusive = small, poorly fitted or top-dose-only inhibition, or a rising curve; inactive = flat fitted curve, though single readings scatter; no compound was filed as active;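 further: 0% = full activity with enzyme and -100% = basal without enzyme; dose as in the result columns while the protocol names 77 µM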
Rango-impB inh: inhibitors of Rango-importin beta complex formation | Rango CFP/YFP FRET sensor + importin beta, 45 min | hit rate 0.031% among 340,000 | Q14974 | AID 540263 | Potency, µM (top dose mostly 92.2 µM), inactives show at the highest dose inhibition of complex formation; active = rising FRET ratio curve, often small or poorly fitted; inconclusive = mostly compound fluorescence or quenching in the first reads; inactive = flat curves in all reads;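 further: potency means the concentration at half of the fitted maximal effect; 0% = DMSO wells and 100% = buffer wells lacking importin beta; nearly all actives have a fitted effect of over 15% in size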
Target sequence (Q14974 whole entry, looked up): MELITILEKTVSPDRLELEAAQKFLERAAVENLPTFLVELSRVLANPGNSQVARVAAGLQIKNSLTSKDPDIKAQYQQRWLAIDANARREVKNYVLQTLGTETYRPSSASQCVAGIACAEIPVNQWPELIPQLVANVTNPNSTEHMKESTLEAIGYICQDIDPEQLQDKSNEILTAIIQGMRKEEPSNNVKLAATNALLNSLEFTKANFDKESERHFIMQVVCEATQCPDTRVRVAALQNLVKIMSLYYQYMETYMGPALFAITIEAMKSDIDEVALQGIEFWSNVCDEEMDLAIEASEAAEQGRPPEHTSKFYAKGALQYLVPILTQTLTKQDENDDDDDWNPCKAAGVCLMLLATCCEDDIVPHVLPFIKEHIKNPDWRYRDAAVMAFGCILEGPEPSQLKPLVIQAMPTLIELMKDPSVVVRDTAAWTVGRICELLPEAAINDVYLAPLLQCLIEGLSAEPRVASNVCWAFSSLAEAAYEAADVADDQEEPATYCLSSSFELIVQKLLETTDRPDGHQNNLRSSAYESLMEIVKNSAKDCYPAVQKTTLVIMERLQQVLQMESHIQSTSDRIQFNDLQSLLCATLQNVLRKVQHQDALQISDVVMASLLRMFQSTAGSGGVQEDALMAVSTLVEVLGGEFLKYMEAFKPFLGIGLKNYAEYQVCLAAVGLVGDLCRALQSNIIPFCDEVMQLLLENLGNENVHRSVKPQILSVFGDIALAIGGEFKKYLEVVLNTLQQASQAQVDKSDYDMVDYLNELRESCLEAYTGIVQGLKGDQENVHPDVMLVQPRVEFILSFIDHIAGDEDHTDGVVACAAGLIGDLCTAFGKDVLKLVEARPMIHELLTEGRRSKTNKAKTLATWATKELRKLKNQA
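FRET biosensor Rango (snurportin 1 IBB between N-terminal EYFP and C-terminal Cerulean), 50 nM in PBS/1 mM DTT/0.02% Tween-20/0.1% BSA, preincubated 5 min RT with compound; 0.125 microM importin beta added, 45 min RT, CFP/YFP FRET ratio read.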
Active calls of the source: *; ? = inconclusive; / = not tested or not shown; & = joins results of further samples; [ ] = another dose, or the depositor's remark.

SMILES	Rango dissoc inh	miR-21 reporter	GLA inh pH 4.5	Rango-impB inh
Cc1ccccc1-c1nc(CS(=O)CC(=O)NCCc2ccc(Cl)cc2)c(C)o1 (stereo unspecified)	-6.8%	?	/	-1.2%
O=C(NCCN1C(=O)S/C(=C/c2ccccc2)C1=O)C1CCCN1C(=O)c1cccs1 (stereo unspecified)	12.1%	-6.8%	1.7	0.2%
C(=N/n1c2ccccc2c2ccccc21)/c1ccco1	8.8%	-1.2%	-26.5	2.1%
O=C(CSc1ccccn1)Nc1cccc([N+](=O)[O-])c1	7.0%	-16.9%	2.5	4.0%
OCCNc1nc(Nc2ccccc2OC(F)(F)F)nc(N2CCCC2)n1	14.1%	/	/	3.3%
CCN1C(=O)[C@H]2[C@@H](c3ccc(-c4cccc(Cl)c4)c(OC)c3)N[C@@](Cc3ccccc3)(C(=O)OC)[C@H]2C1=O	-6.4%	/	/	-2.8%
Cc1ccc(S(=O)(=O)NC(=O)C2CCCCC2)cc1	2.4%	/	/	-0.8%
O=C1CCCc2nc(N3CCN(Cc4ccccc4)CC3)ncc21	3.4%	-3.0%	6.4	0.1%
CCC(=O)c1ccc(OCC(=O)Nc2cc(S(=O)(=O)N3CCCCC3)ccc2N2CCN(CC)CC2)cc1	11.0%	/	/	1.7%
Cc1ccc(C(=O)N/C(=C\c2cn(S(=O)(=O)N(C)C)c3ccccc23)C(=O)NCCN2CCOCC2)cc1	-0.4%	0.4%	/	-1.7%
O=C(Nc1ccc(S(=O)(=O)N2CCCCC2)cc1)c1ccc(=O)[nH]c1	-20.7%	/	/	-3.5%
CN(CC(=O)Nc1c(Cl)cccc1Cl)C(=O)CNC(=O)C1CCCCC1	3.8%	-1.5%	/	2.7%
O=C1CSC(c2cccnc2)N1Cc1ccc(Cl)cc1 (stereo unspecified)	-16.8%	-2.7%	3.5	1.7%
CCN(Cc1ccncc1)Cc1nc(Cc2ccccc2Cl)no1	5.0%	13.5%	/	-1.1%
O=C(O)CC/C(=N\NC(=O)CNC(=O)c1cccc(Cl)c1)c1ccccc1	-6.5%	3.1%	-1.1	-0.7%
COc1ccc(-n2nnc3c(=O)n(CC(=O)N4CCC(C)CC4)cnc32)cc1	-9.5%	-5.5%	4.4	2.0%
CCCC(=NCCc1c(C)[nH]c2ccccc12)C1=C(O)CC(c2ccccc2)CC1=O (stereo unspecified)	-5.1%	19.2%	-2.2	-0.6%
CCOC(=O)N1CCC(NC(=O)C2CCC(Cn3c(=O)[nH]c4ccccc4c3=O)CC2)CC1 (stereo unspecified)	-7.3%	/	/	1.5%
c1ccc(N2CCN(c3nnnn3-c3ccccc3)CC2)cc1	-6.6%	-20.1%	11.2	0.6%
CCC1CCCCN1C(=S)Nc1ccc(OC(F)F)cc1 (stereo unspecified)	-2.5%	-1.7%	7.0	-0.7%
NC[C@H](O)c1ccc(O)c(O)c1	2.7%	/	-4.1&-7.7	?
O=C(NNC(=O)c1ccccc1Br)c1cnccn1	5.6%	/	/	1.4%
COCCn1c(SCC(=O)N(C)c2c(N)n(Cc3ccccc3)c(=O)[nH]c2=O)nnc1-c1cccc(C)c1	-4.8%	/	/	-3.6%
Cc1cccc(/C=N/NC(=O)Cn2nccc2C)n1	-11.6%	-2.7%	-6.4	-8.5%
Cc1ccccc1C(=O)O/N=C/c1c(N2CCOCC2)n(C)c2ccccc12	5.1%	?	-17.1	8.2%
COc1cccc(CNS(=O)(=O)c2c(C(=O)N3CCCC3)c(C)n(C)c2C)c1	-21.7%	-3.7%	/	0.1%
CC(C)(C)c1cnnn1-c1ccc(C=O)cc1	3.5%	-0.4%	-3.1	-0.1%
COc1ccc(C(=O)N(C)Cc2nc3ccccc3c(=O)[nH]2)cc1S(=O)(=O)N1CCCC1	-8.6%	/	/	-3.6%
CNS(=O)(=O)c1ccc(NS(=O)(=O)c2ccccc2F)cc1	-13.3%	-2.3%	0.3	-1.0%
Cc1c(Br)c([N+](=O)[O-])nn1CC(=O)N(C)Cc1ccccc1	16.8%	-1.4%	-1.2	4.5%

Given with bars between the fields: part of the list above
structure | Rango dissoc inh | miR-21 reporter | GLA inh pH 4.5 | Rango-impB inh
Cc1ccccc1-c1nc(CS(=O)CC(=O)NCCc2ccc(Cl)cc2)c(C)o1 (stereo unspecified) | -6.8% | ? | / | -1.2%
O=C(NCCN1C(=O)S/C(=C/c2ccccc2)C1=O)C1CCCN1C(=O)c1cccs1 (stereo unspecified) | 12.1% | -6.8% | 1.7 | 0.2%
C(=N/n1c2ccccc2c2ccccc21)/c1ccco1 | 8.8% | -1.2% | -26.5 | 2.1%
O=C(CSc1ccccn1)Nc1cccc([N+](=O)[O-])c1 | 7.0% | -16.9% | 2.5 | 4.0%
OCCNc1nc(Nc2ccccc2OC(F)(F)F)nc(N2CCCC2)n1 | 14.1% | / | / | 3.3%
CCN1C(=O)[C@H]2[C@@H](c3ccc(-c4cccc(Cl)c4)c(OC)c3)N[C@@](Cc3ccccc3)(C(=O)OC)[C@H]2C1=O | -6.4% | / | / | -2.8%
Cc1ccc(S(=O)(=O)NC(=O)C2CCCCC2)cc1 | 2.4% | / | / | -0.8%
O=C1CCCc2nc(N3CCN(Cc4ccccc4)CC3)ncc21 | 3.4% | -3.0% | 6.4 | 0.1%
CCC(=O)c1ccc(OCC(=O)Nc2cc(S(=O)(=O)N3CCCCC3)ccc2N2CCN(CC)CC2)cc1 | 11.0% | / | / | 1.7%
Cc1ccc(C(=O)N/C(=C\c2cn(S(=O)(=O)N(C)C)c3ccccc23)C(=O)NCCN2CCOCC2)cc1 | -0.4% | 0.4% | / | -1.7%
O=C(Nc1ccc(S(=O)(=O)N2CCCCC2)cc1)c1ccc(=O)[nH]c1 | -20.7% | / | / | -3.5%
CN(CC(=O)Nc1c(Cl)cccc1Cl)C(=O)CNC(=O)C1CCCCC1 | 3.8% | -1.5% | / | 2.7%
O=C1CSC(c2cccnc2)N1Cc1ccc(Cl)cc1 (stereo unspecified) | -16.8% | -2.7% | 3.5 | 1.7%
CCN(Cc1ccncc1)Cc1nc(Cc2ccccc2Cl)no1 | 5.0% | 13.5% | / | -1.1%
O=C(O)CC/C(=N\NC(=O)CNC(=O)c1cccc(Cl)c1)c1ccccc1 | -6.5% | 3.1% | -1.1 | -0.7%
COc1ccc(-n2nnc3c(=O)n(CC(=O)N4CCC(C)CC4)cnc32)cc1 | -9.5% | -5.5% | 4.4 | 2.0%
CCCC(=NCCc1c(C)[nH]c2ccccc12)C1=C(O)CC(c2ccccc2)CC1=O (stereo unspecified) | -5.1% | 19.2% | -2.2 | -0.6%
CCOC(=O)N1CCC(NC(=O)C2CCC(Cn3c(=O)[nH]c4ccccc4c3=O)CC2)CC1 (stereo unspecified) | -7.3% | / | / | 1.5%

New compounds follow:
SMILES	Rango dissoc inh	miR-21 reporter	GLA inh pH 4.5	Rango-impB inh
COC1OC2COC(c3ccccc3)OC2C(O)C1NC(=O)c1ccccc1 (stereo unspecified)	-25.5%	/	/	1.2%
O=C(COC(=O)c1ccc(O)cc1O)NC12CC3CC(CC(C3)C1)C2	-2.3%	/	/	-1.7%
Cc1csc(SCC(=O)Nc2ccccn2)n1	2.2%	-23.9%	-1.5	-1.6%
FC(F)(F)c1nnc2n1N=C(c1cccs1)CS2	?	3.0%	1.6[21.1 µM]	-0.2%
Cc1ccc(NC(=O)Cn2ccnc2)cc1C	-5.2%	-0.8%	/	0.6%
CC(C)(C)c1ccc(C(=O)N2CCN(C(=O)c3cccs3)CC2)cc1	0.6%	/	/	3.8%
Cc1ccc(-c2c[n+]3c(n2-c2ccccc2)SCC3)cc1	6.0%	?	-1.5	-3.5%
Cc1c(N=Nc2ccc(N(C)C)cc2)c(=O)n(-c2ccccc2)n1C	-7.5%	-62.5%	-12.0	5.3%
COc1cc(C(=O)N/N=C/c2ccc(OC(=O)c3ccccc3Cl)cc2)ccc1O	-7.3%	-9.3%	/	3.5%
Cc1ccc(S(=O)(=O)CCC(=O)OCc2cc(=O)oc3cc(C)ccc23)cc1	9.7%	/	/	-1.0%
O=C(Nc1cc(S(=O)(=O)N2CCCCCC2)ccc1OCC(F)(F)F)c1cnccn1	22.0%	/	/	1.9%
Cc1nn(CCCC(=O)Nc2ccccn2)c(C)c1[N+](=O)[O-]	-10.7%	-1.3%	-17.2	-3.8%
COC(=O)c1ccccc1NC(=S)NC(=O)COc1ccc(C)cc1	1.0%	/	/	-4.5%
CCC(=O)N(Cc1cc2ccccc2[nH]c1=O)c1ccc(OC)cc1	2.7%	0.2%	-18.8	1.8%
O=C(NCC(O)COc1ccc([N+](=O)[O-])cc1)Nc1ccccc1 (stereo unspecified)	19.9%	-7.8%	-2.9	-2.0%
CNC(=O)C1CCN(S(=O)(=O)c2c(C)noc2/C=C/c2ccc(OC)cc2)CC1	6.9%	-1.8%	/	1.8%
Cc1ccc(N(C(=O)CNC(=O)c2ccco2)C(C(=O)NC2CCCC2)c2cccnc2)c(C)c1 (stereo unspecified)	0.2%	-4.6%	/	1.2%
COCCn1nnnc1C(CC(C)C)N1CCN(C(=O)c2ccco2)CC1 (stereo unspecified)	6.7%	1.2%	2.3	-0.6%
O=C(CCn1c(=O)sc2ccccc21)Nc1nccs1	-0.9%	-45.6%	-1.7	0.4%
COC(=O)CSC1=C(C#N)C(c2ccccc2F)CC(=O)N1 (stereo unspecified)	-2.6%	-1.6%	-1.9	-16.3%
Cc1ccccc1C(=O)N1CCN(c2ncnc3c2cnn3-c2ccccc2)CC1	-10.4%	0.5%	-6.8	5.1%
COc1ccc(-n2nc3c(c2NC(=O)c2cc4ccccc4o2)CS(=O)(=O)C3)cc1	4.7%	-4.4%	/	-0.7%
CC1(C)C2CC=C(/C=N/NC(=S)Nc3cccnc3)C1C2 (stereo unspecified)	-2.5%	-18.7%	4.0	-0.9%
COc1ccc(CNC(=O)C2CCN(S(=O)(=O)N3CCCCC3)CC2)c(OC)c1	1.9%	-1.3%	/	4.5%
COc1ccc(CCN2C(=O)CN(Cc3ccccc3)CC2=O)cc1OC	-6.5%	-0.4%	3.4	-0.6%
CC(C)(C)c1ccc(OCC(=O)NCCN2CCOCC2)cc1	0.0%	-0.8%	/	-0.4%
CC(Nc1c[nH]c(=O)[nH]c1=O)c1ccccc1 (stereo unspecified)	7.4%	-10.0%	/	-6.8%
CC(C)C[C@@H](CSc1ccc(Br)cc1)N1CCN(C)CCC1=O	13.1%	-45.7%	1.1	-0.3%
O=C(/C=C/Nc1ccc(F)c(Cl)c1)c1ccccc1	-14.7%	-57.9%	/	?
CCC(C)(C)NC(=O)Cc1ccc(F)cc1	-11.2%	-0.4%	4.9	-2.6%
CSc1cccc(NC(=O)N2CCc3ccc(NC(=O)c4ccccn4)cc3C2)c1	0.9%	10.7%	/	-0.2%
CCOC(=O)c1cc(OC(=O)c2ccccc2)n(-c2ccccc2)n1	-16.3%	-7.0%	3.1	2.3%
Cc1cc(-c2ccc(Cl)cc2)c2cnn(C(C)C)c2n1	-0.4%	-18.3%	/	-1.5%
O=C(/C=C/c1ccc(Cl)cc1)NC(=S)NN1CCCCC1c1cccnc1 (stereo unspecified)	/	-6.7%	-26.2	/
Cc1cc(NC(=O)CSc2nc(N)c(NC(=O)c3ccccc3)c(=O)[nH]2)no1	-3.5%	0.5%	-11.1	-4.1%
O=C(c1ccc2c(=O)n3c(nc2c1)CCCCC3)N1CCN(c2ccccc2)CC1	14.4%	-1.6%	2.7	2.8%
CCC(C)c1ccc(NS(=O)(=O)c2c(C)[nH]c(=O)[nH]c2=O)cc1 (stereo unspecified)	0.8%	-6.7%	/	-3.2%
O=C(Nc1ccc(N2CCN(C(=O)c3ccco3)CC2)cc1)c1ccc(F)cc1	15.1%	0.5%	-2.0	-1.6%
Cn1c(N2CCN(S(=O)(=O)c3ccc(F)cc3)CC2)nc2ccccc21	-3.3%	-4.4%	4.9	-2.5%
O=C(CSc1nc(-c2ccccc2)c(-c2ccccc2)o1)Nc1nnc(-c2ccccc2)s1	-6.1%	-3.9%	-14.9	-1.0%
COC(=O)CN1C(=O)COc2ccc(S(=O)(=O)N3CCOCC3)cc21	-9.7%	0.5%	/	-2.2%
COc1ccccc1CCC(=O)Nc1cc(S(=O)(=O)N2CCCCC2)ccc1N1CCN(C)CC1	12.3%	/	/	0.6%

A portion of the library, so the mix of outcomes need not match the whole.
